HIV Env fusion: blocks HIV Env-driven cell-cell fusion | 1.1% of 360,000 active | HeLa-JRFL Env/CEM21 cell fusion, luciferase | inhibition, % at 12.3 µM;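 active = mean replicate inhibition score of at least 50 and every replicate individually at or above 50; inconclusive = only one of the two criteria met; inactive = mean below 50 and not all replicates reaching 50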;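 note: 0% = plate neutral controls and 100% = maraviroc near 300 nM; one replicate is shown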
MT1-MMP act inh: MT1-MMP (human) activation inhibition; HT1080 RFP-PRO-GFP cells, GFP/RFP ratio fluorescence, overnight; percent of plate control window, DMSO zero; P50281; AID 651647; GFP/RFP ratio change, % at 20 µM; 0.061% of 360,000 active;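 active = GFP/RFP ratio change of at least 30% with cell ATP level not reduced by more than half and red fluorescence within 50% of control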; note: strong numbers were not always called active
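Assay system – RFP-PRO-GFP reporter HT1080 cells · Compound dosing – single dose of 20 µM compound, 1% DMSO final · Incubation – overnight compound exposure at 37 °C · Measure – GFP/RFP fluorescence ratio · Benchmarks – DMSO wells and RFP-L50D-GFP cells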
UUG fidelity: yeast start codon fidelity modulation | S. cerevisiae UUG-firefly luciferase reporter, luminescence/redox ratio | 0.13% of 350,000 active | activity score, % at 18.7 µM;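 active = replicate mean at a twofold rise or more, about +100% in these data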;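 note: firefly luciferase made from a UUG start codon reports start codon fidelity; reporter light over untreated wells divided by growth signal over untreated wells; some hits fall short of that in this replicate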
CSC inhib: cancer stem cell inhibition; cancer stem cell-like cells viability, luminescence; inhibition, % at 7.5 µM; 1.1% of 300,000 active;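 active = mean at 75% or more and at least half the replicates too; inconclusive = mean and replicates disagree; tested in HMLE shEcad cells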;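 note: 0% = median of negative and 100% = median of positive control wells; the first replicate is given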
eIF4H inh: inhibitors of RNA binding by human eIF4H; Q15056; eIF4H fluorescence polarization binding assay; inhibition, % at 35 µM; 0.94% of 290,000 active; AID 2012;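 active = 50% or more with normal probe brightness, or confirmed in later tests; inconclusive = above 50% with abnormal brightness, or retests that disagree; inactive = below 50% or failed in later tests; about a fifth of its hits are not listed in these tables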;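 note: calls also rest on retests at 20 µM and on dose response follow-up; 0% = protein and probe with vehicle and 100% = probe without protein; strong numbers were not always called active; many hits fall short of the cut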
Rce1 inhib: yeast Ras-converting enzyme inhibition. Q03530. yeast membranes, quenched prenylated peptide cleavage fluorescence. calls only. 0.27% of 290,000 active. AID 2563;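 active = fall in fluorescence gain of 50% or more versus controls, with final raw signal at or below 3038400; inconclusive = same 50% fall but final raw signal above 3038400; inactive = fall in fluorescence gain under 50%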;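 note: plate controls were neutral control wells for no effect and wells lacking membranes for full effect; tested at 10 µM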
Target sequence (Q03530 whole entry, looked up): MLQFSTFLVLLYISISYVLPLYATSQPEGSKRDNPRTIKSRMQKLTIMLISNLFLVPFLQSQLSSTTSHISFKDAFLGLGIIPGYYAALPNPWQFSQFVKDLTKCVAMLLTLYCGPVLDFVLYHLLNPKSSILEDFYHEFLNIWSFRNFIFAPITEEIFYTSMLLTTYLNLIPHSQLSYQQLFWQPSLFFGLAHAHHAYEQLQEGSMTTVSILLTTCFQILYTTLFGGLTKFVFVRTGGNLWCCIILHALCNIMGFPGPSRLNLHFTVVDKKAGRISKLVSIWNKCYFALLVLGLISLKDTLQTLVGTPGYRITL
PABP FP inh: PABP-poly(A) binding inhibition; PABP-poly(A) RNA binding, fluorescence polarization; inhibition, % at 35 µM; 1% of 290,000 active; AID 2014;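 active = 50% or more with normal probe brightness, or confirmed in later tests; inconclusive = above 50% with abnormal brightness, or retests that disagree; inactive = below 50% or failed in later tests; about a fifth of its hits are not listed in these tables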;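 note: calls also rest on retests at 20 µM and on dose response follow-up; controls were probe without protein and protein plus probe with vehicle; some compounds called inactive have numbers as strong as hits; many hits fall short of the cut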
MT1-MMP act inh RFP: also measured in MT1-MMP act inh; calls as there; RFP signal change, %; measured here: RFP expression control read;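 0 = vehicle wells; hits needed this value within 50% of zero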
* marks the source's active call; other numbers are inactive results; i = inactive; ? = inconclusive; . = not tested or not shown.

SMILES	HIV Env fusion	MT1-MMP act inh	MT1-MMP act inh RFP	UUG fidelity	CSC inhib	eIF4H inh	Rce1 inhib	PABP FP inh
Cc1ccc(NC(=O)/C(=C\c2cccc(Br)c2)NC(=O)c2ccco2)cc1	.	3	4	.	19	-1	.	-3
Cc1ccc(OCC(=O)OCC(=O)c2cccc([N+](=O)[O-])c2)cc1C	3	-5	1	-5	12	2	i	2
O=C(COC(=O)CCc1nc2ccccc2c(=O)[nH]1)Nc1ccc(Cl)cn1	6	-10	3	-4	-14	13	i	13
O=C(NCc1ccc(F)cc1)c1ccc(S(=O)(=O)N2CCCC2)cc1	35	3	-2	-12	.	.	.	.
O=C(COC(=O)c1ccc([N+](=O)[O-])o1)NC1CCCCC1	.	2	0	12	-15	.	.	.
O=C(NCC(c1ccco1)N1CCc2ccccc2C1)c1cccc([N+](=O)[O-])c1 (stereo unspecified)	12	-3	1	3	-3	.	i	.
Cc1cccc(NC(=O)Cn2cnc3c(oc4nc5c(cc43)COC(C)(C)C5)c2=O)c1	10	0	-3	-11	-16	-5	i	-7
CCOC(=O)c1cc2c(ccn2C)n1CC(=O)N(C)C	-2	0	5	.	-5	44	i	35
Cc1ccccc1N1CCN(C2CCCN(C(=O)c3ocnc3C)C2)CC1 (stereo unspecified)	-17	3	3	-8	-14	-2	i	-8
CCOC(=O)Cn1c(=O)c2c(nc3n2CCN3Cc2ccccc2)n(C)c1=O	.	14	7	-12	-5	0	i	-2
COc1ccc(C2=NS(=O)(=O)N(C)C(C(=O)Nc3ccc4c(c3)OCO4)=C2)cc1OC	22	6	-17	-18	-4	4	i	11
O=C1CCCC2=C1C1(CCCC1)N=C(Nc1nc3ccccc3s1)N2	-52	-19	-16	-11	-3	9	i	11
CCn1c(SCC(=O)NC2CCCCC2)nc2ccccc2c1=O	26	-3	-2	-14	0	0	i	49
CC(C)Cn1c(O)c(/C=C2\C=NN=C2c2ccccc2)sc1=S	-1	6	1	.	90*	3	i	36
Cc1ccc(NC2CC(C)NC(=S)N2)cc1 (stereo unspecified)	-2	3	5	-15	2	-9	i	14
CC(O)(CS(=O)(=O)Cc1ccccc1)C(=O)Nc1cccc(C(F)(F)F)c1 (stereo unspecified)	.	-1	-3	21	7	6	i	-2
Cc1ccc2oc(-c3cccc(NC(=O)c4cc(-n5cnnc5)ccc4Cl)c3)nc2c1	-109	11	8	-5	13	4	i	4
CCOc1nc(N=C(N)N)nc2c(C)cccc12	.	-10	-6	2	-16	6	i	-7
CCOc1ccccc1OC(=O)c1ccco1	-45	0	-1	-3	-4	-3	i	-5
COc1ccc2c(c1)C1(C)CC(C)(C)N2C(=O)N1c1ccccc1 (stereo unspecified)	.	4	-4	16	-16	1	i	4
CC(=O)N/C(=C\c1cccc([N+](=O)[O-])c1)C(=O)NC(C)C	-24	1	3	-17	-4	2	i	-10
Cc1ccc(CS(=O)(=O)Cc2ccc(C(=O)NCCc3ccccc3)o2)cc1	8	5	2	.	-24	2	i	-43
O=C(c1ccc(Cl)s1)N1CCc2ccccc21	-215	-5	-2	-12	6	-2	i	3
COc1c(O)cc2oc(-c3ccc(O)cc3)cc(=O)c2c1O	-485	-6	0	-58	10	-7	i	11
O=C(CSc1nn(-c2ccc(Cl)cc2)c(=S)s1)NCC1CCCO1 (stereo unspecified)	26	-3	-4	-8	-12	-5	i	3
CCc1cc(-c2n[nH]c(C)c2-c2ccccc2Cl)c(O)cc1OC	2	-5	4	-15	103*	7	i	-1
COc1ccc(NC(=O)C2CCN(S(C)(=O)=O)CC2)cc1OC	-5	0	2	-17	-20	-9	i	7
O=C(c1cccc(F)c1)N1CCN(Cc2cccc(Br)c2)CC1	11	2	1	-7	-20	23	i	1
Cc1ccc(NC(=O)c2c(C(F)(F)F)nn(C)c2SCc2ccc(Cl)cc2)cc1C	54	-14	-12	-4	31	8	i	-1
O=C(c1ccc(N2CCOCC2)nc1)N1CCOCC1	.	-5	5	-10	1	-4	i	3

Quoted from the listing.
O=C(CSc1nn(-c2ccc(Cl)cc2)c(=S)s1)NCC1CCCO1 (stereo unspecified) in eIF4H inh: -5
O=C(c1ccc(N2CCOCC2)nc1)N1CCOCC1 in MT1-MMP act inh RFP: 5
COc1ccc(NC(=O)C2CCN(S(C)(=O)=O)CC2)cc1OC in CSC inhib: -20
Cc1ccc(CS(=O)(=O)Cc2ccc(C(=O)NCCc3ccccc3)o2)cc1 in HIV Env fusion: 8
COc1c(O)cc2oc(-c3ccc(O)cc3)cc(=O)c2c1O in UUG fidelity: -58

New compounds follow
SMILES	HIV Env fusion	MT1-MMP act inh	MT1-MMP act inh RFP	UUG fidelity	CSC inhib	eIF4H inh	Rce1 inhib	PABP FP inh
FC(F)(F)c1ccccc1-c1nc(-c2ccncc2)no1	-9	-1	-1	-22	7	-2	i	-5
Cc1nc(C(=O)NC2CC2)sc1C1(C)CC(c2ccccc2)=NO1 (stereo unspecified)	7	2	2	-12	-6	-1	i	4
COc1ccc(-n2c(C)cc(C(=O)COC(=O)Cc3n[nH]c(=O)c4ccccc34)c2C)cc1	.	-5	-24	.	.	12	i	11
NC(=O)CN1CCCC1c1ccc2c(c1)OCCO2 (stereo unspecified)	5	2	3	-9	-30	4	i	4
CC(=O)c1cccc(NC(=O)c2ccc(S(=O)(=O)N3CCCC3)cc2)c1	6	2	1	-20	-5	-2	i	-4
CC1Sc2ccc(S(=O)(=O)CCC(=O)Nc3cc(F)ccc3F)cc2NC1=O (stereo unspecified)	0	4	3	-1	-3	7	i	12
CCCCOc1ccc(S(=O)(=O)N2CCN(C)CC2)cc1	-20	-1	4	-17	5	.	i	.
O=C(CSc1ncn[nH]1)Nc1ccnc2ccccc12	28	-6	-9	-25	-2	3	i	6
COC(=O)CSc1ccc2c(N)c(C(=O)OC)sc2c1	-13	2	3	1	-6	-3	i	0
COCCCn1c(=O)c2sccc2n(Cc2cccc(F)c2)c1=O	-43	3	3	2	-13	-13	i	-4
CCC(C)NC(=O)COc1ccc(Br)c(C)c1 (stereo unspecified)	-27	3	-6	-6	-10	-6	i	-14
COc1ccc(CC(N)c2csc(NC(=O)c3ccc(OC)cc3)n2)cc1 (stereo unspecified)	28	1	-6	-25	.	.	.	.
COc1ccc(CC(=O)Nc2cc(=O)n(C)c(=O)n2C)cc1	13	1	5	-12	-4	3	i	5
CCOc1ccc(/C=C(\C(=O)O)c2ccc(S(=O)(=O)N3CCOCC3)s2)cc1OC	23	-3	4	5	.	23	i	-8
C=CCn1c(SCC(=O)NCc2cccs2)nnc1C1CCCCC1	-26	0	1	-7	1	-2	i	5
CCOc1ccc(/C=C(/NC(=O)c2ccccc2Cl)C(=O)O)cc1	0	1	5	.	-1	-4	i	-7
CC(C)CC(=O)NC(NC(=S)Nc1ccccc1)C(Cl)(Cl)Cl (stereo unspecified)	-11	0	-5	-23	-1	-9	i	-4
CCN(C(=O)Cc1c(C(=O)O)n(CC)c2ccccc12)c1ccccc1C	-6	2	4	.	-6	-7	i	-1
COc1ccccc1/C=C/C(=O)Nc1cccc(C(C)=O)c1	-43	7	3	.	6	-2	i	-8
CCOc1ccc(CCNC(=O)COC(=O)c2ccc(Cl)nc2)cc1OCC	.	2	-1	4	-16	.	i	.
CC(=O)c1cc(C(=O)N2CCCC(C(=O)c3ccc(Cl)cc3)C2)cs1 (stereo unspecified)	1	2	-7	2	-2	7	i	-5
O=[N+]([O-])c1cccc(C(=NCc2ccccc2)NO)c1	-28	-1	1	0	-6	-13	i	5
O=c1[nH]ncc(N2CCCCCC2)c1Cl	-14	5	5	-5	-9	-4	.	2
CC1(CCc2ccc3c(c2)OCO3)NCCc2c1[nH]c1ccccc21 (stereo unspecified)	15	3	3	-9	-11	-9	i	12
COc1cc(-c2nnc(SCC(=O)Nc3ccc4c(c3)OCCO4)o2)cc(OC)c1OC	-76	0	2	.	-3	8	i	-1
CC(=O)N=C1SC2CS(=O)(=O)CC2N1c1c(Cl)cccc1Cl (stereo unspecified)	.	-1	1	5	-13	-5	i	0
COc1cc(Br)cc2cc(C(=O)N3CCN(c4ccccn4)CC3)c(=O)oc12	-30	-2	2	-14	1	1	i	8
COc1ccc(CCN2C(=O)C3C4C=CC(C5CC45)C3C2=O)cc1OC (stereo unspecified)	1	1	0	.	-14	3	i	-6
Cc1ccc(NC(=O)c2ccc(CNS(=O)(=O)c3cccc(C(F)(F)F)c3)cc2)cc1	.	11	7	2	8	-12	i	-12
Cc1cccc(C)c1NC(=O)CN(C)C(=O)c1ccc2nc[nH]c2c1	.	-2	-3	-16	-11	.	i	.

The last two entries of the section above come first, to join the parts:
SMILES	HIV Env fusion	MT1-MMP act inh	MT1-MMP act inh RFP	UUG fidelity	CSC inhib	eIF4H inh	Rce1 inhib	PABP FP inh
Cc1ccc(NC(=O)c2ccc(CNS(=O)(=O)c3cccc(C(F)(F)F)c3)cc2)cc1	.	11	7	2	8	-12	i	-12
Cc1cccc(C)c1NC(=O)CN(C)C(=O)c1ccc2nc[nH]c2c1	.	-2	-3	-16	-11	.	i	.
CCC(=O)Nc1ccc(NC(=O)CSc2nc3cc4c(cc3cc2C)CCC4)cc1	-4	-2	-2	-10	45	-10	i	-6
Cn1c(=O)[nH]c(=O)c2c1nc(NCCN)n2CCOc1ccccc1	-7	0	-1	-2	-5	9	i	7
CCC(C)Sc1ccc([C@H]2N[C@@](C)(C(=O)OC)[C@H]3C(=O)N(CC)C(=O)[C@@H]23)cc1OC (stereo partly specified)	-18	1	3	-9	-17	.	.	.
COc1ccc(-n2c(O)c(/C=N/NS(=O)(=O)c3cc(C)ccc3C)c3ccccc3c2=O)cc1OC	15	-159	63	-9	37	4	i	2
CC(C)c1ccc(Nc2nnc(SC3CCOC3=O)s2)cc1 (stereo unspecified)	.	-1	7	-7	-10	-5	i	-2
Cc1nc(C(F)(F)F)c(C(=O)N/N=C(\N)c2ccccn2)s1	26	8	3	.	10	12	i	-5
COCCn1nnnc1SCC(=O)Nc1ccc2c(c1)OCO2	6	1	2	-10	-4	-3	i	3
Cc1c(NC(=O)C(C)Oc2ccccc2F)c(=O)n(-c2ccccc2)n1C (stereo unspecified)	2	1	4	-4	-1	8	.	5
Cc1ccc(-n2c(SCC(=O)Nc3cc(C)on3)nc3c([nH]c4ccccc43)c2=O)cc1	-1	1	2	2	-10	-3	i	-2
COc1cc(S(=O)(=O)N2CCCCCC2)ccc1Cl	4	-1	-8	-3	-7	-4	i	-2
CC(=O)C1=C(c2ccccc2)NC(=O)NC1c1ccccc1OCC#N (stereo unspecified)	.	-2	6	-1	.	-4	i	-4
O=C(Nc1ccccc1)c1ccc(NCCc2ccccc2)c([N+](=O)[O-])c1	-13	-26	1	.	-1	?	i	4
NC(C(=O)O)C(c1ccccc1)C(F)F (stereo unspecified)	.	.	.	.	1	-1	i	0
COc1ccc(OC)c(/C=N/NC(=O)CC2C(=O)NN=C2C)c1 (stereo unspecified)	-33	15	7	0	5	-4	i	-2
Cc1cc(C)c(S(=O)(=O)N(CC(=O)N2CCOCC2)C2CCCCC2)c(C)c1	-49	-2	1	-3	-8	4	i	8
CCOC(=O)N1CCN(C(=O)C2CCC(CNS(=O)(=O)c3ccccc3)CC2)CC1 (stereo unspecified)	.	-3	0	3	-13	-4	i	5
O=C(Nc1nncs1)c1cccc(S(=O)(=O)N2CCCC2)c1	26	1	3	29	2	1	i	-1
COc1ccc(C(O)(c2ccccc2OC)C(CN2CCOCC2)c2ccccc2)cc1 (stereo unspecified)	16	-5	-2	.	-9	-2	i	5
COc1ccc(Cl)cc1NC(=O)CCc1nnc2ccc(N3CCN(C)CC3)nn12	6	-7	2	.	-11	-2	i	9
COc1ccc(N(CC(C)C)S(=O)(=O)c2nnc(NC(=O)CC(C)C)s2)cc1	18	-4	-6	-20	7	-2	i	-4
